# HNF4A DNA FP: change in binding of human HNF4 alpha to DNA | HNF4a-FITC DNA binding, fluorescence polarization, 1 h | activity change, % at 10 µM | 360,000 tested, 0.3% active | AID 1224865; in the data active = activity change above about 30%, passing the limit was not always enough;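 also: controls were the assay level and a saturating level of protein; the project sought stronger binding though the title names inhibitors; some compounds called inactive have numbers as strong as hits; positive values seem to mean higher polarization but the record does not say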
# Vif A3G: inhibitors of Vif binding to APOBEC3G peptide, primary screen, biochemical, TR-FRET, GST-Vif 1-94, biotin-A3G peptide, dose response retest (AID 1117319). TR-FRET GST-Vif / biotin-A3G peptide binding; higher % means a stronger effect; test concentration not given here; strong numbers were not always called active. one-dose inhibition, %; IC50 in µM for titrated hits. 260,000 tested, 0.57% active;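 active = above the screen mean plus three standard deviations and confirmed in dose response; inconclusive = results disagree or hit not tested in dose response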;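 also: Vif residues 1-94 fused to GST binding biotinylated APOBEC3G peptide 110-148; 0% = full assay without inhibitor and 100% = GST in place of GST-Vif; retest series ran down from 100 µM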
# UCH37 inh: blocks the human deubiquitinase UCH37; inhibition, % (concentration not given with the values); Q9Y5K5; purified proteasome/UCH37, Ub-AMC cleavage fluorescence; 330,000 tested, 0.33% active;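 active = mean of two replicates above 20%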;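 also: 0% = compound-free wells with enzyme and 100% = wells lacking proteasome; stock transfer was 100 nL into about 20 µL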
# Target sequence (Q9Y5K5 whole entry, looked up): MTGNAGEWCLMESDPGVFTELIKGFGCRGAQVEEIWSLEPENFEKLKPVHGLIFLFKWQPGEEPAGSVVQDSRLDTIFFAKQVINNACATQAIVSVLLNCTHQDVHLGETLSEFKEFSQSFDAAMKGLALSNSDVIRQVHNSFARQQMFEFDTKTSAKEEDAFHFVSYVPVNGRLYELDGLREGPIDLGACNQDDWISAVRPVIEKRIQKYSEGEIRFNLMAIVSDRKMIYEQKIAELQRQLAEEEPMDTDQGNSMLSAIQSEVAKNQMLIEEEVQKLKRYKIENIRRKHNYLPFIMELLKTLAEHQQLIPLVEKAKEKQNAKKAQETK
#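 Reagent: Ub-AMC substrate; assay system: Proteasome-associated human UCH37 deubiquitinase; controls: no-proteasome and no-compound wells; read-out: % inhibition of Ub-AMC cleavage fluorescence; timing: 30 min preincubation with enzyme, 25 min cleavage at room temperature; signal: AMC fluorescence from Ub-AMC cleavage, excitation 355 nm, emission 460 nm; buffer or medium: Tris-HCl pH 7.4 plus ovalbumin, ATP-MgCl2, DTT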
# Ecoli growth: blocks Escherichia coli growth; OD600, 23 h; stronger effect = lower value; 330,000 tested, 0.21% active; AID 1053175; OD600 absorbance (concentration not given with the values);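 active = OD600 absorbance below the run mean of sample wells minus 3.6 SD, in any replicate, cut at about 0.56 in these data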;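 also: stock transfer was 300 nL into about 60 µL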
# RanGTP-Impb inh: inhibitors of RanGTP-importin-beta interaction, primary screen, biochemical, FRET, CFP-Ran, YFP-importin-beta, homogeneous; AID 2216; cell-free CFP-Ran/YFP-importin-beta FRET ratio; inhibition, % (concentration not given with the values); 300,000 tested, 1.1% active;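 active = most replicates above 15%; inconclusive = exactly half above 15%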;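 also: 0% = DMSO wells and 100% = Ran loaded with GDP instead of GTP; wells of about 40 µL received 100 nL stock; the first replicate is given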
# MLL AF4-AF9 inh: blocks AF4 peptide binding to human AF9 | 350,000 tested, 0.47% active | AlphaScreen, biotin-AF4 peptide binding to FLAG-AF9 | inhibition, % at 10 µM;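 active = every replicate reaching a set inhibition limit, whatever the replicate mean, cut at about 25% in these data; inconclusive = mean inhibition reaches that limit but some replicates miss it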;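 also: 0% = plate neutral control median and 100% = total signal loss; the record names both 10 and 1 µM as test concentration; the first replicate is given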
# Target sequence (P42568 whole entry, looked up): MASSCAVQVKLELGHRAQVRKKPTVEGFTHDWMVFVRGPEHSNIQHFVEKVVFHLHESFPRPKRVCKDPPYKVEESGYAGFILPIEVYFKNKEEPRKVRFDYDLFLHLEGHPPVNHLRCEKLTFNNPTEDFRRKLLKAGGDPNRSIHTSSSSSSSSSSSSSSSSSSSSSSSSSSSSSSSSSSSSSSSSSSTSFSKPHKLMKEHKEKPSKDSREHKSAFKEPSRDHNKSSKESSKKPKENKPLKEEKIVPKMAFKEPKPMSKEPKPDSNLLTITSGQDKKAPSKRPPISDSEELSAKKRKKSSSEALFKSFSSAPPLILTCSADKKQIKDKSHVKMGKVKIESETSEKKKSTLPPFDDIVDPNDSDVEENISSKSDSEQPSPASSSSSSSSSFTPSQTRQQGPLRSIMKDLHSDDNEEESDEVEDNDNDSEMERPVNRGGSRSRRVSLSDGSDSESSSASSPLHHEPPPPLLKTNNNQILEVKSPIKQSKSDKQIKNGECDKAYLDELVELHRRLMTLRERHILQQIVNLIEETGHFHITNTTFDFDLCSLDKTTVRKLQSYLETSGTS
# FGF22 binding: shifts melting point of recombinant human FGF22; recombinant FGF22 thermal shift, SYPRO orange fluorescence; percent of sucrose octasulfate shift, DMSO zero; AID 651658; calls only at 9.99 µM; Q9HCT0; 340,000 tested, 1.5% active;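 active = melting point raised past a set limit in the mean and every replicate; inconclusive = no clear call; three in four hits are not shown here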
# Target sequence (Q9HCT0 whole entry, looked up): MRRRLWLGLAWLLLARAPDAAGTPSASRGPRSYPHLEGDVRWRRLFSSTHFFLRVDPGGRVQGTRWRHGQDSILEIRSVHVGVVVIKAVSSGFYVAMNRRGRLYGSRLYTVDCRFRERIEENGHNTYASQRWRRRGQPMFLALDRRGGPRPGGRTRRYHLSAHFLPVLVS
# The depositor's hits bear a star; i = inactive; u = inconclusive; x = not tested or not shown; & = joins results of further samples. These rows are one share of the data; count on the stated rates, not on these rows.
SMILES,HNF4A DNA FP,Vif A3G,UCH37 inh,Ecoli growth,RanGTP-Impb inh,MLL AF4-AF9 inh,FGF22 binding
Cc1ccc(C2=Nc3ccc(Br)cc3C(c3ccncc3)=NN2)cc1,4.6,0%,4.6,0.7,3.7,23,i
Cc1ccc(-c2cnc(C(O)c3cc(C)cc(C)c3)[nH]2)cc1 (centres undefined),-0.4,x,x,x,x,7.7,i
COC(=O)CC1SC(=O)NC1=Nc1ccc(O)cc1 (centres undefined),1.1,13%,-2.2,0.7,-0.2,x,x
Cc1nn(C)cc1CNC(=O)c1cc2n(n1)C(C(F)(F)F)CC(c1cccs1)N2 (centres undefined),-0.4,-5%,-2.5,0.65,-1.2,6.2,i
CCOC(=O)c1sc(NC(=O)CCN2CCOCC2)c(C(=O)OCC)c1C,-0.8,-11%,1.9,0.67,-4.5,x,x
Cc1ccccc1Cn1ccc(NC(=O)CCSc2nc(-c3ccco3)cc(C(F)(F)F)n2)n1,-0.3,2%&2%,6.6,0.81,1.3,x,x
COC(=O)Nc1ccc(S(=O)(=O)NNC(=O)c2c(O)c3ccccc3n(C)c2=O)cc1,-1.4,x,0.6,0.71,2.7,-2.8,i
O=C(Nc1ccccc1)C1C(c2ccccc2)C1(Cl)Cl (centres undefined),-2.0,x,2.8,0.6,0.8,-1.2,i
CC1CC(C)CN(S(=O)(=O)c2ccc3c(c2)oc(=O)n3CC(=O)N2CCOCC2)C1 (centres undefined),0.8,-2%,6.0,0.73,2.1,u,i
O=C(Nc1ccc(S(=O)(=O)N2CCOCC2)cc1)c1ccc2c(c1)OCO2,-3.5,1%,4.1,0.68,2.5,-33,i
COc1cccc(OC)c1C(=O)Nc1cccc(C(=O)Nc2cccc(C(=O)O)c2)c1,2.5,x,1.8,0.68,3.4,-0.5,i
Cc1c(C(=O)N2CCC(n3nccc3NC(=O)C3CC3)CC2)[nH]c2ccc(Cl)cc12,1.8,x,-0.1,0.67,-1.1,2.2,i
CNc1nc2c(C)cccn2c(=O)c1C=NCc1ccccc1,5.1,-3%,-44,0.65,2.3,x,x
N#Cc1ccccc1NS(=O)(=O)c1cc2c3c(c1)CCC(=O)N3CCC2,-3.6,2%,3.2,0.68,0.2,-4.4,i
O=C(NN1C(=O)c2ccccc2NC1c1ccco1)c1ccccc1 (centres undefined),1.0,-7%,-67,0.66,5.6,-2.0,i
Cc1ccc(NC(=O)CN(C)C(=O)c2nn(C)c(=O)c3ccccc23)cc1,1.8,-6%,0.7,0.69,-0.9,1.5,i
CC(=O)N1CCN(S(=O)(=O)c2cccc(C(=O)OCc3ccc(F)cc3)c2)CC1,0.8,x,x,x,x,0.0,i
Cc1ccc(Oc2nc(-c3ccccc3)ncc2S(C)(=O)=O)cc1,-1.1,-8%,-4.2,0.78,3.9,x,x
COc1c(Br)cc(Br)cc1/C=N/NC(=O)c1ccncc1,-4.5,x,x,x,-0.1,-1.3,i
CCC(CC)c1nc2ccccc2c(=O)[nH]1,-1.4,10%,2.9,0.67,u,4.9,i
COc1ccc(C2C(C(=O)Nc3cc(OC)c(OC)c(OC)c3)c3ccccc3C(=O)N2C)cc1 (centres undefined),0.7,x,4.1,0.74,1.8,1.7,i
C=CCN1C(=O)c2ccc(C(=O)N(CC)CC(=O)Nc3ccc(OC)cc3)cc2C1=O,1.9,-4%,5.6,0.64,u,-13,i
O=[N+]([O-])c1ccc(N2CCOCC2)cc1SCc1ccco1,3.0,4%,3.5,0.69,3.3,5.6,i
C=CCN=C1S/C(=C\c2ccc(N(C)C)cc2)C(=O)N1CC=C,36*,1%,9.4,0.65,3.1,1.0,i
COc1ccc(OCC(=O)Nc2c3c(nn2C(C)(C)C)CS(=O)(=O)C3)cc1,1.8,x,1.2,0.7,3.4,-1.5,i
CC(NC(=O)C1c2ccccc2Oc2ccccc21)C1CCCO1 (centres undefined),-2.2,2%,5.5,0.67,5.7,0.0,i
Cc1nc2c(OCc3ccc(C(F)(F)F)cc3)cccn2c1N(C)Cc1cccs1,-1.5,x,x,x,x,2.3,i
CCCCN(C(=O)C1CC(=O)N(c2ccc(CC)cc2)C1)c1c(N)n(CCC)c(=O)[nH]c1=O (centres undefined),-2.2,2%,4.6,0.68,x,-1.0,i
O=C1C=C(NCC2CCCO2)C2(CCCCC2)O1 (centres undefined),4.3,0%,0.8,0.72,x,x,x
COc1cc(OC)c(C(=O)Nc2cccc(C(C)=O)c2)cc1OC,-0.7,-9%,4.7,0.71,-0.5,x,x
O=C(CCc1nc2ccccc2c(=O)[nH]1)NCc1cccc(Cl)c1,-0.3,-5%,2.3,0.69,x,x,x
CS(=O)(=O)N1CCN(C(=O)COc2ccc3ccccc3c2)CC1,11,x,0.4,0.74,0.7,6.7,i
O=S(=O)(Nc1nccs1)c1ccc(NS(=O)(=O)c2cccs2)cc1,-2.1,0%,4.3,0.69,4.4,x,x
O=C(COc1ccc(Cl)cc1[N+](=O)[O-])N1CCCCCC1,-1.5,20%,x,x,5.6,-0.7,x
O=C(O)Cc1ccc(NC(=S)Nc2cccc(Cl)c2Cl)cc1,3.0,-5%,-0.4,0.72,-0.6,x,x
O=C1CCN(C(=S)NCc2ccccc2)CC1,-1.4,2%,1.1,0.7,-4.1,-1.2,i
CC(C)c1ccc(C2CC(=O)c3cnc(N4CCc5ccccc5C4)nc3C2)cc1 (centres undefined),2.5,1%,0.5,0.73,2.5,x,x
COCCCNC(=O)Cc1c(C)c2c(cc(C)c3c(C(C)(C)C)coc32)oc1=O,-0.4,x,-134,0.65,-0.1,-0.2,i
COc1ccc(NC(C)=O)cc1NC(=O)c1cccc(S(=O)(=O)N2CCc3ccccc32)c1,0.6,-4%,2.0,0.65,x,-1.7,i
Cc1ccc(F)cc1NC(=O)c1cnccn1,-0.2,1%,-0.2,0.67,-3.6,0.5,i
COc1cccc(NC2=C(NCCO)C(=O)c3ccccc3C2=O)c1,-4.6,x,14,0.7,-3.8,38*,x
COc1cc2c(cc1OC)CN(C(=O)CCCN1C(=O)c3ccccc3C1=O)CC2,-1.9,-3%,-5.9,0.67,u,x,x
O=C(/C=C/c1ccc(-c2ccccc2[N+](=O)[O-])o1)c1ccc(F)cc1,-0.3,23%,10,0.72,2.9,x,x
COc1ccc2nc3c(cc2c1)c(NC(=O)CC(C)C)nn3CC(C)C,0.2,2%,-66,0.67,74*,-8.5,i
O=C1CCCC2=C1C(c1cccc(Br)c1)n1nc(-c3ccco3)nc1N2 (centres undefined),1.1,x,-2.6,0.74,0.1,2.9,i
CCn1cc(CN2CCC(C(=O)Nc3cccc(-c4cccc(Cl)c4)c3)CC2)c(C)n1,2.2,-3%,5.7,0.7,-0.2,13,i
CC1(C)CC(=O)C2=C(C1)Nc1cc3c(cc1C2c1ccc(F)cc1)OCO3 (centres undefined),-2.5,-6%,-135,0.74,1.0,x,x
O=C1CCCN1C(=O)COc1ccc([N+](=O)[O-])cc1,3.2,x,3.7,0.65,0.9,-1.7,i
CCN1CCN(c2ccc(S(=O)(=O)N3CCOCC3)cc2NC(=O)c2cccc([N+](=O)[O-])c2)CC1,3.0,1%,5.5,0.71,x,-4.2,i
O=C(Nc1ccc(Cl)cc1)N1CCN(c2ccccc2)CC1,-1.1,21%,5.5,0.64,-1.5,x,x
c1ccc(N/N=C(\Cc2ncc[nH]2)c2ccccc2)cc1,4.4,1%,x,x,1.7,16,x
CC1CCN(C(=O)CSc2nc3c(c(=O)n2C)SCC3)CC1,4.5,x,7.6,0.69,-1.1,1.2,i
CC1(C)CC(=O)c2sc(NS(=O)(=O)c3ccc(Br)cc3)nc2C1,0.7,u,12,0.69,x,-1.6,i
COc1ccc(-n2c(=S)[nH]c3cc(C(=O)NCc4ccccc4)ccc3c2=O)c(OC)c1,-2.9,x,5.8,0.7,-1.7,3.2,i
COc1cccc(N2CCN(Cc3nc(N)nc(N4CCCc5ccccc54)n3)CC2)c1,3.1,3%,4.1,0.73,-0.2,x,x
O=C(NNS(=O)(=O)c1ccc(F)cc1)C1CCCCC1,-0.6,x,0.3,0.66,-3.4,-2.4,i
COc1ccc(CN2CCN(c3ncccn3)CC2)c(C)c1C,-3.7,8%,3.0,0.64,-5.3,0.2,i
CCCCN(CC)c1nc(N)c(C#N)c(CC#N)c1C#N,18,4%,-0.8,0.72,3.8,x,x
COc1ccc(N(CC(=O)NCC2CCCO2)S(=O)(=O)c2ccc(C)cc2)cc1OC (centres undefined),-2.2,0%,2.0,0.65,-3.3,x,x
Cc1cccc(N2CCN(CCCNC(=O)c3ccc(NC(=O)C4=CSCCO4)cc3)CC2C)c1 (centres undefined),1.7,x,x,x,7.2,0.5,i

# Following part.
SMILES,HNF4A DNA FP,Vif A3G,UCH37 inh,Ecoli growth,RanGTP-Impb inh,MLL AF4-AF9 inh,FGF22 binding
CCN(CC)C(=O)Oc1cc2c(-c3cc4cccc(OC)c4o3)cc(=O)oc2cc1C,-6.1,-5%,-43,0.66,3.0,1.8,i
Cc1ccc(S(=O)(=O)NCc2ccc(N3CCN(C(=O)OC(C)(C)C)CC3)cc2)cc1,1.0,x,1.1,0.72,-0.6,-0.6,i
O=C(Nc1nc(-c2ccc(Cl)s2)cs1)c1ccccc1,-1.5,1%,-5.7,0.71,1.8,x,x
Cc1ccc(C2=NC(C(F)(F)F)(C(F)(F)F)c3c(n(-c4ccc(F)cc4)c(=O)[nH]c3=O)N2)cc1,0.9,-4%,-26,0.71,-0.2,x,x
CCOc1ccc(N(CC(=O)Nc2cccc(N(C)S(C)(=O)=O)c2)S(=O)(=O)c2ccccc2)cc1,1.2,-14%,1.1,0.69,-2.0,x,x
CCCS(=O)(=O)N1CCC(C(=O)N2CCC(Cc3ccccc3)CC2)CC1,0.2,4%,-2.1,0.7,-0.3,x,x
CSc1nc2ccsc2c(=O)n1-c1ccccc1,-1.5,-4%,0.9,0.64,1.7,-0.3,i
CC1CCN(C(=O)C2CCC(C)(C(=O)O)C2(C)C)CC1 (centres undefined),-6.6,-1%,1.4,0.71,-2.8,x,x
Cc1cccc(/C=N/NC(=O)c2cc(-c3cccnc3)nc3c2c(C)nn3-c2ccccc2)c1,-1.2,u,x,x,5.7,x,x
COCc1cc(=O)n2[nH]c(C(F)(F)F)nc2n1,-2.0,u,1.0,0.61,6.9,x,x
COc1cccc(NC(=O)C2=COCCO2)c1,1.3,-3%,2.3,0.65,-2.3,0.8,i
CCN1CCN(S(=O)(=O)c2ccc(Cl)c(C(=O)N(CC)CC(=O)Nc3ccc(OC)cc3)c2)CC1,-1.3,1%,5.9,0.73,u,-0.5,i
C=CCn1c(O)c(N=NC(=S)Nc2ccccc2F)c2ccccc21,-3.4,13%,3.8,0.7,-0.8,5.2,x

# Complete entries, looked up by structure.
# Results for Cc1nn(C)cc1CNC(=O)c1cc2n(n1)C(C(F)(F)F)CC(c1cccs1)N2 (centres undefined) → HNF4A DNA FP: -0.4; Vif A3G: -5%; UCH37 inh: -2.5; Ecoli growth: 0.65; RanGTP-Impb inh: -1.2; MLL AF4-AF9 inh: 6.2; FGF22 binding: i
# Results for O=C(CCc1nc2ccccc2c(=O)[nH]1)NCc1cccc(Cl)c1 → HNF4A DNA FP: -0.3; Vif A3G: -5%; UCH37 inh: 2.3; Ecoli growth: 0.69; RanGTP-Impb inh: x; MLL AF4-AF9 inh: x; FGF22 binding: x
# Results for O=C(/C=C/c1ccc(-c2ccccc2[N+](=O)[O-])o1)c1ccc(F)cc1 → HNF4A DNA FP: -0.3; Vif A3G: 23%; UCH37 inh: 10; Ecoli growth: 0.72; RanGTP-Impb inh: 2.9; MLL AF4-AF9 inh: x; FGF22 binding: x

# Bioassay records from PubChem BioAssay.
